MgrA-DNA mod: modulators of Staphylococcus aureus MgrA DNA binding; AID 602314; inhibition, %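 (about 10 µg/mL by stock and volumes)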; actives 0.13% (n = 84,000); fluorescence polarization;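 active means above 50% in either of two replicates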;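 further: 0% = protein plus DNA without compound and 100% = DNA alone without protein; higher means less MgrA bound to DNA so lower polarization; one replicate is shown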
Sa helicase inh: S. aureus DNA helicase inhibition; actives 0.05% (n = 120,000); inhibition, %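 (tested at about 80 µM)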; purified S. aureus helicase, fluorescence unwinding assay; about half of the hits fall short of the stated cut;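 active means both duplicates at 50% or more, or one of them with a favoured structure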;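 further: 0% = mean of negative control wells and 100% = mean of positive control wells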
An asterisk follows results filed as active; i = inactive; · = not tested or not shown.

Start of the data: the first 5 records, to show the layout:
MgrA-DNA mod	Sa helicase inh	Structure
·	14	CCOC(=O)c1[nH]c2ccccc2c1NC(=O)Cc1ccc(OCC)cc1
3.4	·	O=C(NNC(=S)NC1CC2C=CC1C2)c1cccnc1 (stereo unspecified)
-2.7	·	CCc1ccnc(NC(=O)c2cccs2)c1
-0.2	16	N#Cc1cn(-c2ccccc2)nc1-c1cccnc1
1.1	·	CN(C)C(=S)SCc1ccccc1C(=O)Oc1c(Cl)cccc1Cl

The whole of this part, previewed entries included:
MgrA-DNA mod	Sa helicase inh	Structure
·	14	CCOC(=O)c1[nH]c2ccccc2c1NC(=O)Cc1ccc(OCC)cc1
3.4	·	O=C(NNC(=S)NC1CC2C=CC1C2)c1cccnc1 (stereo unspecified)
-2.7	·	CCc1ccnc(NC(=O)c2cccs2)c1
-0.2	16	N#Cc1cn(-c2ccccc2)nc1-c1cccnc1
1.1	·	CN(C)C(=S)SCc1ccccc1C(=O)Oc1c(Cl)cccc1Cl
·	-36	Clc1ccc(-c2nc(NCc3ccco3)c3ccccc3n2)c(Cl)c1
·	-6	O=C(Nc1ccccc1)N1CCn2cccc2C1Cc1ccccc1 (stereo unspecified)
-1.0	·	CCOC(=O)c1cc(-c2ccccc2)sc1NC(=O)CN1CCc2ccccc21
0.2	12	CC1COC(c2cccn2Cc2ccc(Cl)cc2)=N1 (stereo unspecified)
-3.6	·	CCCCc1ccc(N=Cc2nc(-c3ccc(Br)cc3)oc2O)cc1
·	-83	CCOC(=O)C1=C(O)/C(=C/c2ccc(N3CCOCC3)o2)SC1=Nc1ccc(OCC)cc1
-2.4	·	O=C(Nc1ccccc1)OCC(CN1CCCCC1)OC(=O)Nc1ccccc1 (stereo unspecified)
·	0	CN1CCN(C(CNC(=O)c2cccc(F)c2)c2ccc(F)cc2)CC1 (stereo unspecified)
0.7	9	CC(C)NC(=O)c1ccc(S(=O)(=O)N(C)C)cc1
0.1	-9	Cn1c(-c2ccc(N)cc2)nc2ccccc21
-1.5	17	O=C(CSc1nc2c(c(C(F)(F)F)n1)CCCCC2)NCCC1=CCCCC1
-1.1	4	CC(=O)NC1C(=O)N(C)N=C1c1ccccc1 (stereo unspecified)
0.2	4	CN1CCN(NC(=O)CN(C)S(=O)(=O)c2cc(Cl)ccc2Cl)CC1
0.3	1	CCCC(=O)Nc1cc(C(=O)NC2CCCCC2C)ccc1S(=O)(=O)c1ccc(C)cc1 (stereo unspecified)
5.2	4	CC(=O)OC1CC2C(CCCC2(C)C)C2C(=O)C(O)C(C(C)C)C(=O)C12 (stereo unspecified)
-0.7	·	CCCNC(=S)N1CCC(C(=O)c2ccc(C)cc2)CC1
·	3	O=C(c1cccc(S(=O)(=O)N2CCOCC2)c1)N1N=C(c2ccccc2)CC1(O)C(F)(F)F (stereo unspecified)
·	-10	Cc1ccc(CC(C#N)Sc2nnc(C(C)N3CCCCC3)n2-c2ccc(F)cc2)cc1 (stereo unspecified)
·	31	COc1cccc(NC(=O)Nc2ccc3nc4n(c(=O)c3c2)CCC4)c1

Shown with two lines to a compound: three of the compounds above.
Order of values: MgrA-DNA mod, Sa helicase inh
Cn1c(-c2ccc(N)cc2)nc2ccccc21
→ 0.1, -9
CCCC(=O)Nc1cc(C(=O)NC2CCCCC2C)ccc1S(=O)(=O)c1ccc(C)cc1 (stereo unspecified)
→ 0.3, 1
COc1cccc(NC(=O)Nc2ccc3nc4n(c(=O)c3c2)CCC4)c1
→ ·, 31

Later entries
MgrA-DNA mod	Sa helicase inh	Structure
-0.1	2	O=C(NCC(=O)N1CCN(c2ccccc2F)CC1)c1ccco1
-4.0	·	COC(=O)C1=NN(c2ccccc2)C(=O)/C1=C\N(C)C
·	-5	CCc1oc2ccccc2c1/C=C/C(=O)O
·	-25	CC(=O)N1CCOc2cc(S(=O)(=O)N3CCCC3)c(Cl)cc21
-0.4	·	COc1ccc(/C(C)=N/O)cc1CSc1ccccn1
-3.0	4	NC(=O)C1CCN(C(=S)NCCc2ccccc2)CC1
-1.9	8	COC(=O)CCC(=O)Oc1ccc2ccccc2c1
1.0	·	O=C1c2ccccc2SCC1(CO)CO
-0.2	8	CCCN(CCC)C(=O)CC(c1ccccc1)c1cc(Br)ccc1O (stereo unspecified)
-1.6	7	CCCCCn1c(Br)nc2c1c(=O)n(CC(N)=O)c(=O)n2C
2.5	5	CCCn1c2c(c(=N)c3c1CCC3)CCC2
0.1	·	Cc1ccc(S(=O)(=O)Cc2csc(N3CCOCC3)n2)cc1
·	-12	COc1ccc(-c2c(C(F)(F)F)nn(C)c2NC(C)=O)cc1
·	21	CC(=Nc1ccc(Cl)cc1)c1cccs1
3.6	9	CN=Cc1cc(-c2ccccc2)n(C)c1S
-0.6	-22	Cc1ccc(C(=O)OCC(=O)N2CCOCC2)c(C)c1
-0.9	·	CCN(CC)CC(O)COc1cc(C(F)(F)F)ccn1 (stereo unspecified)
·	9	CCOc1ccc(-n2c(SC(C)C(=O)NCc3ccco3)nnc2-c2ccccc2Cl)cc1 (stereo unspecified)
·	5	COc1ccccc1C(C)NC(=O)c1ccc(=O)[nH]c1 (stereo unspecified)
-0.7	·	CC(=O)Nc1cc(-c2sc3ccc(Cl)cc3c2C)[nH]n1
-1.1	-9	OCCCc1nc2ccccc2n1C1CCCCC1
·	36	C(=C\c1ccccc1)/C=N/n1cnnc1
·	20	O=C(NCCO)c1ccc(CSc2nc3ccccc3[nH]2)cc1
-0.6	·	Cc1ccc(C(=O)Nc2nnc(CCS(=O)(=O)c3ccc(Br)cc3)s2)cc1[N+](=O)[O-]
·	-3	O=C(Nc1ccccc1)N(C1=NCCC1)c1ccccc1
·	-31	O=C1O[C@@H]2C[C@H]3C[C@@H]2[C@@H]1[C@H]3C(=O)N1CCC(C(O)(c2ccccc2)c2ccccc2)CC1
·	-7	Cc1ccc(-n2nnnc2SCC(=O)Nc2cccc3nsnc23)c(C)c1
0.0	·	O=C1CSC(=Nc2ccccc2F)N1c1ccccc1F
1.3	·	COc1ccc(N=C2SC(C(=O)Nc3ccc(OC)cc3)CC(=O)N2Cc2ccc3c(c2)OCO3)cc1 (stereo unspecified)
23	132*	Cc1cc2nc3ccc(=[N+](C)C)cc-3sc2cc1N
·	-6	Cc1ccc(N=C2N=C(N)c3ccccc32)c(C)c1
-1.1	7	CCCN1C(=O)SC(CC(=O)Nc2ccc(C(=O)OCC)cc2)C1=O (stereo unspecified)
-2.4	6	O=C(O)c1cn[nH]c1-c1ccc(F)cc1
·	10	O=C(Cn1ncc(Cl)c(Cl)c1=O)N1CCCCCC1
0.1	-5	N#Cc1ccc(NC(=O)c2ccc(Br)cc2)cc1
·	-29	CCN(Cc1ccccc1)C(=O)c1cc(-c2ccc(C)c(C)c2)n[nH]1
·	-6	C=CCn1c(SCC(=O)Nc2ccc3[nH]c(=O)[nH]c3c2)nc2ccccc2c1=O
-0.6	12	C=CCOC(=O)c1sc(N2C(=O)c3oc4ccc(F)cc4c(=O)c3C2c2ccc(O)cc2)nc1C (stereo unspecified)
·	2	CCn1cc(/C=C(\NC(=O)c2ccccc2)C(=O)NCc2ccco2)c2ccccc21
-2.8	11	CCN1C2OC(C3OC4C(O3)N(CC)S(=O)(=O)N4CC)OC2N(CC)S1(=O)=O (stereo unspecified)
18	i	CCOC(=O)N1CCN(c2cc(NCCC(=O)O)c3c4c(onc24)-c2ccccc2C3=O)CC1
·	2	CC(NC(=O)C1CCN(C(=O)c2cc3sccc3n2C)CC1)C12CC3CC(CC(C3)C1)C2 (stereo unspecified)
·	-9	COc1ccc(OCC(=O)N2CC(C)CC(C)C2)cc1 (stereo unspecified)
·	-9	CCOC(=O)c1c(C)[nH]c(C(=O)OCC(N)=O)c1C
·	-2	Cc1ccc(NC(=O)CC2C=CCC2)cc1 (stereo unspecified)
-0.3	-21	CC(=O)NC(CC(=O)O)c1ccccc1 (stereo unspecified)
-2.4	·	O=C(O)CC1(CC(=O)Nc2ccc(N3CCOCC3)c(Cl)c2)CCCCC1
·	-13	CN1C2=NCCN2C(=O)c2ccccc21
-0.8	·	N=C(N)SCc1cc2ccccc2o1
-1.2	·	Cc1nc(-c2cc(C#N)c(Sc3cccc(C(F)(F)F)c3)nc2C)cs1
2.2	2	CC(=O)Nc1ccc(NC2OC(=O)c3ccccc32)cc1 (stereo unspecified)
1.5	7	COc1ccc(S(=O)(=O)N(CCc2ccccc2)CC(=O)Nc2cccc(Cl)c2)cc1OC
4.2	0	O=C(Nc1ccccc1)Nc1ccccc1C(=O)N1CCOCC1
0.6	1	CN(C)/C(=N\S(=O)(=O)c1ccc(F)cc1)c1ccccc1
·	32	Cc1ccc(/C=C2/Sc3ccccc3N(CC(=O)NCCCN3CCN(C)CC3)C2=O)cc1
-2.3	10	Cc1ccc(-c2csc(NC(=O)C(C)C)n2)cc1
·	5	CC(C)(C)C(=O)OCCn1c(=O)c2cc3c(=O)n(CCOC(=O)C(C)(C)C)c(=O)c3cc2c1=O
·	-10	COc1ccc(CNC(=O)C(C)Sc2nc3ccccc3n2C)cc1 (stereo unspecified)
·	9	CCCCCCN1CC(O)=C(c2nc3ccccc3[nH]2)C1=N
-2.0	·	Nc1cc(=O)n(Cc2ccccc2)c(=O)n1-c1ccccc1

The listing continues.
MgrA-DNA mod	Sa helicase inh	Structure
-1.9	11	Cc1ccc(C(=O)NS(=O)(=O)c2ccccc2)cc1
·	-6	COc1cccc(CNC(=O)COC(=O)C2CCN(S(=O)(=O)c3ccc(C)cc3)CC2)c1
·	-14	Cc1cc(C)nc(SCc2ccc(C(=O)NN)cc2)n1
·	-9	O=C(CC1Sc2ccccc2NC1=O)Nc1ccc(N2CCOCC2)cc1 (stereo unspecified)
·	35	CC1CCCN(C(=O)C2CCCN(S(=O)(=O)c3cccc4nsnc34)C2)C1 (stereo unspecified)
·	-6	O=C(Nc1ccc(Cl)cc1)c1ccsn1
·	-14	O=C(CSc1ccccn1)c1c[nH]c2ccccc12
-2.5	·	CCOC(=O)c1cnc(SCc2ccc(Cl)cc2)nc1C(F)(F)F
·	8	Cc1nc(N2CC(C)OC(C)C2)c2c3c(sc2n1)CCC3 (stereo unspecified)
1.9	6	Cc1onc(-c2ccccc2)c1C(=O)N1CCN(S(=O)(=O)c2ccccc2)CC1
1.9	-14	CCOc1ccc2nc(Nc3nc(O)cc(=O)[nH]3)nc(C)c2c1
4.0	14	CCn1c(-c2ccccc2Cl)nc2ccccc21
2.5	3	COC(=O)C1=C(C)N(C)C(=S)NC1c1ccccc1 (stereo unspecified)
·	-5	c1ccc(C(c2ccccc2)N2CCN(c3ncnc4nc[nH]c34)CC2)cc1
·	-15	Brc1cccc(COc2ccc(-c3nnco3)cc2)c1
-3.3	·	CN(C)C=Nc1cc(C(C)(C)C)on1
·	15	C=CCN(CC(=O)Nc1cccnc1)S(=O)(=O)c1ccc(Cl)cc1
0.9	11	Cc1ccc(-c2nn(-c3ccccc3)cc2/C=N/O)cc1
5.2	5	S=c1[nH]cc(-c2ccc(Br)cc2)[nH]1
·	-8	c1ccc(-c2nnc(Sc3ncnc4c3oc3ccccc34)o2)cc1
-2.3	2	Cc1ccccc1OCC(=O)NN1C(=O)C2C3C=CC(O3)C2C1=O (stereo unspecified)
·	12	CCOc1ccc(C2C(C(=O)Nc3ccc(F)cc3)c3ccccc3C(=O)N2CCN2CCOCC2)cc1 (stereo unspecified)
·	5	CC1CC(CC(C)C(=O)Nc2nncs2)C(=O)O1 (stereo unspecified)
·	14	N#CCOC(=O)c1ccc2c(c1)S(=O)(=O)N=C1CCCCCN12
-1.1	·	COc1cccc(NC(=O)C(C)(C)C)c1
-1.4	·	FC(F)(F)c1cc(Cl)c2ncc(-c3ccc(Br)s3)nc2c1
0.3	·	C/C(=N\NC(=S)NC(C)(C)C)c1cc(F)ccc1O
·	-37	CSc1ncc(C(=O)NC2CCN(Cc3ccccc3)CC2)c(C)n1
-0.5	5	O=C(O)CCCOc1ccc(Br)cc1
2.4	5	CN(C)CCCNc1nc(-c2ccc(Cl)cc2)cs1
·	14	Cc1cc(C2=NNC(=NCC3CCCO3)SC2)c(C)n1-c1ccc(F)cc1 (stereo unspecified)
·	-15	O=C(c1cc2ccc3cccnc3c2[nH]1)N1CCCC1
·	24	CCCS(=O)(=O)N1CCN(c2ccccc2F)CC1
0.4	-2	O=C(CN1C(=O)c2ccccc2C1=O)Nc1ncn[nH]1
-0.5	-23	CN(C)C(=O)N1CCC(Cc2ccccc2)CC1
-0.7	·	Fc1cccc(Cl)c1CSc1ccccc1Br

Full records, quoted from the list.
Results for CCCS(=O)(=O)N1CCN(c2ccccc2F)CC1 → MgrA-DNA mod: ·; Sa helicase inh: 24
Results for COc1cccc(NC(=O)C(C)(C)C)c1 → MgrA-DNA mod: -1.1; Sa helicase inh: ·
Results for CSc1ncc(C(=O)NC2CCN(Cc3ccccc3)CC2)c(C)n1 → MgrA-DNA mod: ·; Sa helicase inh: -37

Following part
MgrA-DNA mod	Sa helicase inh	Structure
-2.1	11	O=C(CCCC(=O)c1ccccc1)Nc1ccc2c(c1)CCC2
1.8	10	O=C(Nc1ccc(S(=O)(=O)N2CCCCC2)cc1)c1cc(-c2cccs2)nc2ccccc12
-1.1	4	CC(=O)n1c2ccccc2c2cc(Cl)ccc21
·	0	Cc1cc(NC(=O)c2ccc(NS(=O)(=O)c3ccc(F)cc3)cc2)no1
-0.9	-12	Cc1ccc(Nc2nnc(-c3ccc(C)c(S(=O)(=O)NCC4CCCO4)c3)c3ccccc23)cc1 (stereo unspecified)
·	-5	c1ccc2nc3c(nc2c1)CCCC3
-0.6	-7	Cc1ccc2nc(=S)nc(-c3ccccc3)n2c1
-1.0	-5	CC1=NN(c2ccccc2)C(=O)C1C=NC1CCS(=O)(=O)C1 (stereo unspecified)
·	10	O=C1c2ccccc2C(=O)N1CC(=O)N1c2ccccc2CCc2ccccc21

Compound activity: PubChem, ICCB-Longwood Screening Facility, Harvard Medical School

An excerpt. The share of hits here may be higher or lower than overall.
